Assay outcomes from PubChem.
hNpr1 antagonist – Natriuretic polypeptide receptor (hNpr1) antagonism - Primary qHTS; Potency, µM (doses to about 46.3 µM), for inactives: top-dose activity change, negative = inhibition, usual class: inhibitors; HEK293 hNpr1 GloSensor cGMP, ANP-stimulated luminescence; Atrial natriuretic peptide receptor 1 (Homo sapiens), P16066; 76,000 compounds, 1.6% hits; active = well fitted inhibition curve with a large enough effect; inconclusive = small, poorly fitted or top-dose-only effect; inactive = no such curve, though single readings can be large or run the other way;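 further: nearly all actives have a fitted effect of over 60% in size; nearly all hits also lower the signal before the agonist is added; a reference antagonist and vehicle were the controls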
Target sequence (P16066 whole entry, looked up): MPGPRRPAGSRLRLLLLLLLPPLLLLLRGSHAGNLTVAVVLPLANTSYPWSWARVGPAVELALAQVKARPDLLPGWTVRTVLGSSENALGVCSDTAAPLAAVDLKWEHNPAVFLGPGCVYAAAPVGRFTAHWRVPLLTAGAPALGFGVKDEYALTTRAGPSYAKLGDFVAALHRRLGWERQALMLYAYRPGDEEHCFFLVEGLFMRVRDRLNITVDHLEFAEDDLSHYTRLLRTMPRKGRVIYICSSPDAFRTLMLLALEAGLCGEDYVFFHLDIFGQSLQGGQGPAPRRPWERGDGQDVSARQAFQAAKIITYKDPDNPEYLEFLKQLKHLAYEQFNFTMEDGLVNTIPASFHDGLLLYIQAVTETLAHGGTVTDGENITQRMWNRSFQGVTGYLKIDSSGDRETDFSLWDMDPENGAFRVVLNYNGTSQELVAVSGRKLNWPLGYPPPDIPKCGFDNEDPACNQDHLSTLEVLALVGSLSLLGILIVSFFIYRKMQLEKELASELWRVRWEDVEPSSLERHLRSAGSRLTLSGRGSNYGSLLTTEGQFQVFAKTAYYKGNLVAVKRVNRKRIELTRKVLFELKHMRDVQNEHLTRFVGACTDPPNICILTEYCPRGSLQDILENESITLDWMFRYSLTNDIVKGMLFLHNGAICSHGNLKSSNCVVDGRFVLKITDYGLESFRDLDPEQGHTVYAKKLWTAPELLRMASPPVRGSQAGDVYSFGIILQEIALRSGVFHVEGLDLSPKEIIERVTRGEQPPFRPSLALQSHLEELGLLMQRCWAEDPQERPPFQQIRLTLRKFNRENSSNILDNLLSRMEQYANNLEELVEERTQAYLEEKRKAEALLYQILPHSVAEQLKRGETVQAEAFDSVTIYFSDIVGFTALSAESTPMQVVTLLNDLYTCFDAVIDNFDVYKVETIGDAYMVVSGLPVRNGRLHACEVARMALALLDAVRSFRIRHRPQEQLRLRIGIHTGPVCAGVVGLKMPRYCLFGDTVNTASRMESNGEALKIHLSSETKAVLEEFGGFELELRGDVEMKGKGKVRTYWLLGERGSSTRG
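Compound pre-incubated 30 min at room temperature on GloSensor-loaded HEK293 cells stably carrying hNpr1 and the pGS-40F cGMP biosensor. Stimulation uses hNppA at 0.1 nM final; luminescence is taken at baseline and 20 min post-agonist.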
* hit, by the source's call; ? = inconclusive; [ ] = remark or other dose. On the % scale 0 is the no-effect control and ±100 the full control effect; potency means the concentration at half of the fitted maximal effect.

hNpr1 antagonist,smiles
3%,Cc1noc([C@@H]2CC(F)(F)CN2C(=O)c2coc(C)n2)n1
4%,Cc1ccc(C(=O)NCc2nnc3ccc(-c4ccc(Cl)cc4)nn23)s1
-2%[70.6 µM],O=C(C1CC1)N1CCOC[C@H](Oc2ccccc2)C1
-18%,COc1cccc(CN2CCCCCCNC(=O)[C@@H]3CCC[C@@H]32)c1
-1%,C[C@H](O)C(=O)N1CCc2ccc(S(=O)(=O)NCCOc3ccccc3)cc2C1
-12%[70.6 µM],CC(C)(C)CN1CCOC[C@H]1c1ncc(-c2ccccc2)[nH]1
-17%[70.6 µM],COc1ccc(NC(=O)c2ccc3c(c2)NC(C)(COc2ccccc2)CO3)cc1OC (configuration not stated)
-4%,CCC1(O)CCC12CCN(C(=O)c1cccnc1)CC2 (configuration not stated)
0%,CCC(CC)NC(=O)[C@@H]1COCC(=O)N1Cc1ccc(OC)cc1OC
4%,Cn1nc(C(=O)N2CCc3nn(CC4CC4)c(=O)n3CC2)c2ccccc21
-4%,O=[S+]([O-])(c1cccnc1)N1CCNc2cnc(Nc3ccc(-n4ccnc4)cc3)nc2C1
5%[70.6 µM],NC(=O)CNC(=O)C1=C[C@@H](NC(=O)Nc2cccc(F)c2)[C@@H](O)[C@H](O)C1
3%,CC(c1ccccn1)N(C)Cc1ccc(S(C)(=O)=O)cc1 (configuration not stated)
-1%,CC(C)c1noc(-c2cn(C3CCN(C(=O)c4cccc5[nH]ccc45)C3)nn2)n1 (configuration not stated)
-2%,O=C(O)c1ccc(C2CCCN(C(=O)CN3CCc4ccccc4C3)C2)cc1 (configuration not stated)
4%,COCc1noc(CN2CCN(C)C3(CCC(=O)N(CC4CC4)CC3)C2)n1 (configuration not stated)
7%,O=C(Nc1ccc(C(F)(F)F)cc1)N1CCCC1c1nncn1C1CCCC1 (configuration not stated)
-6%,O=C(Cc1c(F)cccc1Cl)NC1CCc2nn(CC3CC3)c(=O)n2CC1 (configuration not stated)
-4%[70.6 µM],CN(C)c1ccc(CN2CCOC[C@H]2c2ncc(-c3cccc(F)c3)[nH]2)cc1
2%,CS(=O)(=O)Nc1ccc(C2(C(=O)NCc3cc(F)cc(F)c3)CCCCC2)cc1
-9%,Cc1noc(C)c1CC(=O)N1CCC(c2n[nH]c(=O)n2Cc2ccc(F)cc2)CC1
6%,Cc1nnc([C@@H]2CC(F)(F)CN2C(=O)c2ccco2)o1
-6%,O=C(c1cc2ccccc2o1)N1CCC2(CCCN(Cc3ccccc3F)C2)C1 (configuration not stated)
2%,OCC1CN(Cc2ccccc2)CC12CCN(C1CCC1)CC2 (configuration not stated)
-25%,O=C(c1ccoc1)N1CCN(C(=O)c2nnn3c2COC(c2ccc(Cl)cc2)C3)CC1 (configuration not stated)
-3%,C=CCN(C)C(=O)[C@@H](C)C1CC[C@@]2(C)Cc3sc(NS(=O)(=O)c4ccc(Cl)cc4)nc3[C@@H](C)[C@@H]2[C@H]1O (some centres not stated)
-2%,O=C(c1cccc(F)c1)N1CC2CC(C1)[C@H]1CCCC(=O)N1C2 (some centres not stated)
-20%,Cc1noc(C)c1S(=O)(=O)N1CCCC(Cc2noc(-c3cccnc3)n2)C1 (configuration not stated)
7%,Cc1cc(C(=O)N2CCC(N3CC4CC(C3)[C@H]3CCCC(=O)N3C4)CC2)n(C)n1 (some centres not stated)
-19%,Cc1ccccc1S(=O)(=O)N1CCC(CCC(=O)N(C)Cc2cccnc2)CC1

hNpr1 antagonist,smiles
6%,COc1ccc(CN(C)Cc2ncccc2C(=O)O)cc1
1%,CC1=C[C@@H](CN2CCC(C(N)=O)CC2)[C@H](C(C)C)C[C@H]1Cc1nnc(-c2ccccc2F)o1
?,CNc1nccc(N2CCC(CC(=O)N3CCN(c4ccccc4C)CC3)CC2)n1
-26%[70.6 µM],Cc1ccccc1CN1CC[C@H](c2nc3ccccc3s2)C1
-3%[70.6 µM],C[C@@H](NC(=O)c1cnccn1)c1onc(-c2ccccc2)c1C(=O)O
-3%,COC[C@@H]1CN(S(=O)(=O)c2cccc(F)c2)C[C@H]1c1nc(C)no1
-13%,CC1(Cc2ccc3c(c2)OCO3)CCC(=O)N(CCc2ccncc2)C1 (configuration not stated)
3%,CCN(CC)C(=O)[C@@H]1C[C@H](N)CN1C(=O)c1cc2ccccc2n(C)c1=O
-2%,CN(C(=O)Cn1ccn2nc(-c3ccccc3)c(CO)c2c1=O)c1ccccc1
-3%[70.6 µM],COc1ccc(CNC(=O)[C@@H]2CCC[C@@H](NCc3cnn(C)c3)CN(C)C(=O)C2)cc1
3%,COCCN(Cc1cnn(-c2ccccc2C)c1)CC1CC1
-9%,CCCc1noc(-c2ccn3c(CNC(=O)c4cccc(C)c4)nnc3c2)n1
0%,O=C(NC[C@H]1O[C@@H](CC(=O)N2CCN(c3ccccn3)CC2)[C@H](O)[C@@H]1O)Nc1ccccc1
-2%,COCCNC(=O)c1ccc2c(c1)N(C)C(CC(=O)NC1CCOCC1)CO2 (configuration not stated)
-2%,COC1C(=O)N(CC2CC2)C12CCN(C(=O)c1ccc(C)nc1)CC2 (configuration not stated)
0%,O=C(c1ccc2ncccc2c1)N1CCC(N2C(=O)C(O)C23CCCCC3)CC1 (configuration not stated)
-1%[70.6 µM],C#CCNC(=O)[C@@H]1Cc2cn(Cc3cccnc3)c3cccc(c23)[C@H](CC(C)C)N1
-27%,O=C(COc1ccc(F)cc1)N1CCCCC1c1nc(CCOCC2CCCC2)no1 (configuration not stated)
-11%,COCCN1C(=O)CC[C@]2(C(=O)NCc3ccccc3C)CCCC[C@@H]12
-38%[70.6 µM],FC(F)(F)c1ccc(CNc2cc(Cl)nc3ccnn23)cc1
3%,CC(C)c1nc2c(c(-c3ccc(O)cc3)n1)CN(C(=O)c1ccc(C(F)(F)F)cc1)CC2
-11%[70.6 µM],O=C(N[C@H]1[C@H](O)[C@H](O)C[C@@H]1c1ccc(C(F)(F)F)nc1)c1nc2ccccc2s1
-18%[70.6 µM],COc1ccc2nc(C[C@@H]3C[C@@H](C(C)C)[C@H](CNCc4ccccc4)C=C3C)[nH]c2c1
7%,CN(C)C(=O)c1cccnc1-c1ccc(S(C)(=O)=O)cc1
-2%,Cc1ccc(C2c3cc(OCc4nc(C(=O)N5CCCC5)co4)ccc3CCN2C(=O)C2CC2)cc1 (configuration not stated)
-2%,COC[C@@H]1CN(C(=O)c2cn3ccccc3n2)C[C@H]1c1ccncc1
3%,COC1CCOC2(CCN(C(=O)c3cc(F)ccc3F)CC2)C1 (configuration not stated)
0%[70.6 µM],COc1ccc(OC)c(-c2cc(-c3cccs3)nc3c(C)noc23)c1
3%,CN1C(=O)C(CC(=O)NC2CC2)=C2CCCCC21 (configuration not stated)
3%,CN(C)C[C@@H]1CN(c2ncccn2)C[C@H]1NC(=O)c1cnco1

Brought forward from above: seven entries, then new ones.
hNpr1 antagonist,smiles
7%,CN(C)C(=O)c1cccnc1-c1ccc(S(C)(=O)=O)cc1
-2%,Cc1ccc(C2c3cc(OCc4nc(C(=O)N5CCCC5)co4)ccc3CCN2C(=O)C2CC2)cc1 (configuration not stated)
-2%,COC[C@@H]1CN(C(=O)c2cn3ccccc3n2)C[C@H]1c1ccncc1
3%,COC1CCOC2(CCN(C(=O)c3cc(F)ccc3F)CC2)C1 (configuration not stated)
0%[70.6 µM],COc1ccc(OC)c(-c2cc(-c3cccs3)nc3c(C)noc23)c1
3%,CN1C(=O)C(CC(=O)NC2CC2)=C2CCCCC21 (configuration not stated)
3%,CN(C)C[C@@H]1CN(c2ncccn2)C[C@H]1NC(=O)c1cnco1
2%,CNC(=O)CCC1CCN(C(=O)c2ccccc2F)CC1
1%[70.6 µM],COc1cccc(CN2CC[C@H]3COC(=O)N3c3ccc(OC)cc3C2)c1
7%,COc1ccc(-c2nnc3n2CCN([S+](=O)([O-])c2ccc(C(F)(F)F)cc2)C3)cc1
-13%,Cc1cccc(Cl)c1NC(=O)CN1C(=O)NC(c2ccc(Cl)cc2)C2=C1COC2=O (configuration not stated)
-1%,O=C(Nc1ccccn1)C1c2ccccc2C(=O)N(Cc2ccccc2)C12CCCC2 (configuration not stated)
-2%[70.6 µM],Cc1ccccc1CNC[C@H]1O[C@@H]2C[C@@H](CC(=O)N3CCC(F)(F)C3)O[C@@H]2[C@@H]1O
3%,CC(C)c1nc2c(c(-c3ccc(O)cc3)n1)CCN(Cc1ccc(F)cc1)CC2
-16%[70.6 µM],COCCCNc1cc(-c2cccc(C(F)(F)F)c2)nc2c(C)noc12
-9%,Cc1cccc(-c2[nH]ncc2CN)c1
-3%[70.6 µM],COc1cccc(NC(=O)N[C@H]2[C@H](O)[C@@H](N3CCC(C(N)=O)CC3)[C@@H]3OC[C@H]2O3)c1
0%,COCC1CN(C(C)=O)CC12CCN(C(=O)C1CNC1)CC2 (configuration not stated)
2%,O=C1CCC2(C(=O)NCCCN3CCOCC3)CCCC=C2N1c1ccccc1 (configuration not stated)
0%,O=C(NCc1ccc(F)cc1)c1nc(-c2cccc(C(F)(F)F)c2)c2ccccn12
8.9µM*,COc1ccc(-c2noc(CC3CCN(C(=O)C4CCN(C(=O)c5ccccc5)CC4)CC3)n2)cc1
7%,CCC(CC)C(=O)NC1CCN(c2cnn(CCOC)c(=O)c2)CC1
8%,Cc1ccc(CN2C(=O)NC3(CCN(C(=O)c4ccc[nH]c4=O)CC3)C2=O)cc1
4%[70.6 µM],C=CCNC(=O)C[C@@H]1CCN(C(=O)Nc2cccc(C(F)(F)F)c2)C[C@@H]1CC
-3%,CCN(CCOc1ccc(F)cc1)C(=O)c1cnc(NC(C)C)nc1
-1%,CCN(C(=O)CC1COc2ccc(C(=O)N(C)C)cc2N1C)C1CC1 (configuration not stated)
-13%,CCc1nc(NC(=O)Cn2nc3c(cc2=O)CCCC3)sc1C
4%,COc1ccc(CCC(=O)N2CCC(N3CC(OC)C34CCOCC4)CC2)cc1 (configuration not stated)
3%,O=C(C1CCC1)N1CC2CC(C1)[C@H]1CCCC(=O)N1C2 (some centres not stated)
-8%,COc1ccc(-c2nnc(C[C@@H]3C[C@@H](C(C)C)[C@H](CN(C)CCc4ccccn4)C=C3C)o2)cc1
2%,O=C(NCCN1CCOCC1)C1CN(S(=O)(=O)c2ccccc2)CC12CCCCC2 (configuration not stated)
-1%[70.6 µM],COc1ccc(Nc2cc3c(cn2)CN(Cc2ccncc2)CCN3)cc1OC
1%,O=C(N[C@H]1[C@H](O)[C@H](O)C[C@@H]1c1ccc(N2CCOCC2)nc1)c1ccc2c(c1)OCCO2
2%[70.6 µM],O=C(O)COCC(=O)N[C@H]1CCN2C(=O)c3ccc(Cl)cc3NC(=O)[C@H]12
0%,O=c1[nH]c(C2CCCN(Cc3ccc(C(F)(F)F)cc3)C2)nn1-c1ccccc1 (configuration not stated)
1%,Cc1ccccc1CC(=O)NCc1nnc2ccc(-c3ccccc3)nn12
-15%[70.6 µM],C=CCNC(=O)N[C@H]1CCN2C(=O)c3cc(-c4cccc(C)c4C)ccc3NC(=O)[C@@H]2C1

hNpr1 antagonist,smiles
0%,CCOC(=O)N1CCC(N2CCCCC(N)C2)CC1 (configuration not stated)
?,Fc1ccc2c(c1)nc1n2[C@@H](CNCc2ccccc2)COC1
0.32µM*,O=C(NC1CCCC1)N1CC(Oc2ccc(-c3nc(-c4ccccc4)no3)cc2)C1
-30%[70.6 µM],CN(C)c1cccc(-c2ncc3c(n2)OCCN(c2ccccc2)C3=O)c1
-1%,COCCO[C@H]1C(=O)N(C2CCN(C(=O)CCn3cccn3)CC2)[C@H]1c1ccncc1
-12%,CCC1(C(=O)NC2CCCCC2)CCCCC(=O)N1 (configuration not stated)
-22%[70.6 µM],CC(C)N1C[C@@H]2C[C@H]1C(=O)N(Cc1ccccc1)c1ccccc1O2
-16%,COCCNC(=O)CN1CN(c2ccccc2)C2(CCN(C(=O)NC3CCCCC3)CC2)C1=O
3%,COc1ccc(-c2cc(N3CCCN(C(=O)c4ccccc4)CC3)n[nH]2)cc1
0%[70.6 µM],Cc1cc(C)c(CNC(=O)c2cc(-c3cnn(C)c3)cc3c2OCCN3C)c(=O)[nH]1
-14%,CN(C)c1cccc(C(=O)Nc2ccc3c(N4CCOCC4)ncnc3c2)c1
3%,COc1cccc(C(=O)N2CCC(N3C[C@H](O)C[C@H]3C(=O)NCc3ccccc3F)CC2)c1
-18%,COc1ccc(OC)c(NC(=O)C2CCc3nc(N4CCN(C(C)=O)CC4)sc3C2)c1 (configuration not stated)
0%,O=C(NC1CCCCC1)NC1CCc2nn(CC3CC3)c(=O)n2CC1 (configuration not stated)
0%,COc1cccc(S(=O)(=O)N2CCN(C3CCN(C)C3=O)CC2)c1 (configuration not stated)
0%,CCn1nccc1C(=O)N1CCC2(CC1)NC(=O)N(c1ccc(F)cc1)N2
1%,O=C(Cn1nc2c(cc1=O)CCCCC2)NCCc1nnc2ccccn12
-9%,Cc1nn(-c2ccccc2)c(Oc2ccc(F)cc2F)c1CCC(=O)NC(C)C
-12%,O=C(Cn1ncnn1)N1CCN(Cc2cnc[nH]2)CC(O)C1 (configuration not stated)
5%,Cn1nc(C2CCCN(C(=O)NC3CCCC3)C2)n(C2CCCC2)c1=O (configuration not stated)
-8%[70.6 µM],CNC(=O)C1(N2CCC[C@H]2C(=O)NCc2ccccc2)COC1

Arranged by value in hNpr1 antagonist (low to high): some entries from above
| Compound | hNpr1 antagonist |
| --- | --- |
| CCN(C(=O)CC1COc2ccc(C(=O)N(C)C)cc2N1C)C1CC1 (configuration not stated) | -1% |
| COc1cccc(S(=O)(=O)N2CCN(C3CCN(C)C3=O)CC2)c1 (configuration not stated) | 0% |
| CN1C(=O)C(CC(=O)NC2CC2)=C2CCCCC21 (configuration not stated) | 3% |

The list is partial. The share of hits here may be higher or lower than overall.
